From PubChem BioAssay
H5N1 CPE: MDCK cell protection from H5N1 avian flu | cytopathic effect, luminescence, 72 h; hits give high values; no value below 0 was filed and about half of the inactive calls have no number; reference of the scale not given here | inhibition, % at 50 µM | AID 740, 2007 | actives 0.07% (n = 96,000); in the data active = inhibition above about 25%
* hit, by the source's call; i = inactive.

SMILES | H5N1 CPE
CC(=O)c1cccc(NC(=O)N2CCC(c3nnc(SCC(N)=O)n3C)CC2)c1 | 0.2
CC(C)NC(=O)COC(=O)c1ccc(Cl)c(S(=O)(=O)N2CCCC2)c1 | 0.4
COc1ccccc1CNS(=O)(=O)c1cc(C)ccc1OC | 2.5
Cc1c(C(=O)Nc2ccccn2)oc2ccccc12 | i
Cc1cccc(C)c1NC(=O)c1sccc1SCC#N | i
CC(C(=O)NC1=NCCS1)(C(F)(F)F)C(F)(F)F | 0.2
CC1=CCC(C(=O)O)(C(=O)N/N=C/c2cccs2)C(c2ccc(F)cc2)C1 (configuration not stated) | i
COc1ccc2cc(C)c3nnc(SCC(=O)Nc4nc(-c5ccccc5)cs4)n3c2c1 | 0.4
COc1ccccc1C(=O)Nc1ccccc1N1CCN(S(C)(=O)=O)CC1 | i
O=C(NCc1cccs1)C1CCC(CNS(=O)(=O)c2ccc(Br)s2)CC1 (configuration not stated) | i
Cc1ccc(S(=O)(=O)N/N=C\c2cc([N+](=O)[O-])ccc2Cl)cc1 | 0.5
CCC(c1nnnn1C(C)(C)C)N1CCN(c2cc(Cl)ccc2C)CC1 (configuration not stated) | 0.3
CCCCn1c(=O)[nH]c(=O)c2c1nc(COc1ccc(C#N)cc1)n2CCC | 1.1
N=C1C(c2nc3ccccc3c(=O)[nH]2)=C(O)CN1CCO | i
CC1(C)CC(=O)c2sc(NC(=O)CN3CCCCC3)nc2C1 | 1.2
CCC1C(C#N)=C(SC)NC2=C1C(=O)CC(C)(C)C2 (configuration not stated) | 1.8
CC1CCCCN1CCn1c(=S)[nH]c2ncccc2c1=O (configuration not stated) | 0.8
N#CCN1C(=S)N=C(Nc2cccc(Cl)c2)C12CCCCC2 | 0.5
CCN(CCNC(=O)C1CCN(S(=O)(=O)c2cccc3cccnc23)CC1)c1ccccc1 | i
COC(=O)c1cccc2c1-c1ccccc1/C2=N/O | i
O=C(NCc1ccccc1)N1CCN(c2ccccc2F)CC1 | i
CCOC(=O)C1Cn2c(nc3c(c2=O)C2(CCCC2)Cc2ccccc2-3)S1 (configuration not stated) | 3.1
COC(=O)C1=C(N)Oc2cc(C)n(Cc3cccnc3)c(=O)c2C1c1cccc(OC)c1OC (configuration not stated) | 0.8
CCn1c(SCC(=O)N2CCCCC2)nnc1-c1ccc(S(=O)(=O)N2CCN(C)CC2)cc1 | 0.2
COc1ccc(N2C3=[N+](CCCC3)CC2(C)O)cc1 (configuration not stated) | 0.2
O=C(c1cccc(S(=O)(=O)N2CCCCC2)c1)N1CCOCC1 | 0.3
Cc1ccc(-c2c(C#N)c(N)n(-c3ccccc3)c(=O)c2C#N)cc1 | 0.4
CC(=O)NC(C)c1ccc(Cl)c(Cl)c1 (configuration not stated) | i
Cc1ccc(C2=N/C(=C\N3CCCCC3)C(=O)O2)cc1 | i
COc1ccc(N(C(=O)COc2ccccc2)C2C=CS(=O)(=O)C2)cc1 (configuration not stated) | 0.1
CCOC(=O)C1CCN(C(=O)c2cn(CCOC)c(=O)c3c2c2ccccc2n3C)CC1 | i
Cc1cc(C(=O)c2cccs2)c(N)s1 | 1.1
COc1ccc(-c2nnc(N3CCC(C)CC3)c3ccccc23)cc1 | i
O=S1(=O)N=C(Nc2nncs2)c2ccccc21 | 1.6
O=C(C1CCC(CNc2c(N3CCCCC3)c(=O)c2=O)CC1)N1CCCCC1 (configuration not stated) | 0.8
COc1nc(NCc2ccco2)nc(N2CCC(C)CC2)n1 | 1.2
CC1(C)Cc2noc(N)c2C(C)(C)N1OC(=O)c1cccs1 | 1.5
Cc1[nH]c2ccc(OC(=O)N3CCOCC3)cc2c1C(=O)OC(C)C | 1.0
CC(C)CN(C(=O)COC(=O)CCN1C(=O)c2ccccc2C1=O)C1CCS(=O)(=O)C1 (configuration not stated) | i
CCOC(=O)C1CCN(C(=O)Cc2ccc(C)cc2)CC1 | 0.7
Cc1ccc(-n2nnc3c(=O)n(CC(=O)N4CCOCC4)cnc32)cc1 | 0.2
CN1CC(=O)NC1=NC(=O)c1ccc(Cl)c(S(=O)(=O)N2CCCCCC2)c1 | 0.7
CCOC(=O)C1=C(c2ccccc2)OC(N)=C(C#N)C1c1ccco1 (configuration not stated) | 0.1
Cc1cccc(CSc2nnc(-c3ccco3)n2C)c1 | i
Cc1nnc(SCC(=O)Nc2ccc(N3CCOCC3)cc2)n1-c1ccccc1 | i
Fc1ccccc1CN1CCCCCCC1 | 1.7
CCOC(=O)c1cc(C)n(-c2ccc(OC)c(OC)c2)c1C | i
c1ccc2nc3c(nc2c1)c1ccccc1n3CCN1CCOCC1 | i
CCN=C1SC(CC(=O)Nc2ccccc2OCC)C(=O)N1CC (configuration not stated) | 0.8
N#Cc1ccc(C(=O)Nc2ccc(S(=O)(=O)NC3=NCCCCC3)cc2)cc1 | 0.1
Going on with the list.
SMILES | H5N1 CPE
N#Cc1nc(-c2ccc(OCc3ccccc3)cc2)oc1NCc1cccnc1 | 0.8
Cc1cc2c(ncn2C)c(NS(=O)(=O)c2ccccc2Cl)c1C | 1.1
COc1ccc(C(=O)Nc2cc(C(F)(F)F)ccc2Cl)cc1OC | i
COC(=O)c1ccc(-c2ccco2)n1Cc1ccccc1Cl | i
CN=C(Nc1cc(Cl)ccc1Cl)SC1CC(=O)N(c2ccc(C(=O)OC)cc2)C1=O (configuration not stated) | 3.6
Cc1cc(C)n(C(C)n2nc(C)cc2C)n1 | i
C=CCn1c(COc2ccccc2-c2ccccc2)nnc1SCC(=O)NC(=O)NCc1ccco1 | i
Cc1ccc(N2CN=C(c3ccccc3)NC2=S)cc1 | 0.4
COc1ccc(-c2nc(CS(=O)CC(=O)NCCCN3CC(C)CC(C)C3)c(C)o2)cc1OC (configuration not stated) | i
C=C(C)c1cccc(C(C)(C)NC(=O)NCc2ccc(OC)c(OC)c2)c1 | 0.8
CC1CC(C)CN(C(=O)c2ccc3c(c2)N(Cc2ccccc2)CCS3)C1 (configuration not stated) | 6.4
COc1ccc(OC)c(N/C(C)=C/C(=O)c2ccc(C)o2)c1 | 12
COC1(OC)N=C(N)C2(C#N)C(c3ccccc3)NC(C)=CC12C#N (configuration not stated) | i
CCc1c(O)nc(SCC(=O)Nc2ccccc2OC)[nH]c1=O | i
COc1ccc(S(=O)(=O)NC(CC(=O)NCc2ccc3c(c2)OCO3)c2ccco2)cc1 (configuration not stated) | i
CCC(=O)N1CCc2cc(S(=O)(=O)CCC(=O)N3CCc4ccccc4C3)ccc21 | 0.6
CCOC(=O)c1ccc(NC(=O)N2CC(C)OC(C)C2)cc1 (configuration not stated) | 0.6
COc1cccc(-c2nc(-c3ccc(NC(=O)Cc4ccccc4OC)cc3)no2)c1 | i
Cn1c(=O)c2c(nc(CN3CCN(C(=O)c4ccco4)CC3)n2Cc2ccc(F)cc2)n(C)c1=O | 10
CCN1CCc2c(sc(NC(=O)c3ccc(S(=O)(=O)N4CCOCC4)cc3)c2C(=O)OC)C1 | i
C=CCN1C(=O)CN=C1Nc1cc(C)ccc1C | i
Cc1ccc(NC(=O)CN2CCc3ccccc3C2)cc1 | 0.1
CN1CCN(S(=O)(=O)c2cccc(C(=O)NC3CCCc4ccccc43)c2)CC1 (configuration not stated) | i
Cc1ccc(C(=O)OCCc2c(C)[nH]n(-c3ccccc3)c2=O)cc1 | i
COC(=O)c1c(-c2ccc(C)cc2)csc1NC(=O)Cc1ccc(OC)c(OC)c1 | 0.2
Cc1cc2oc(=O)c3c(c2cc1OCc1nn[nH]n1)CCCC3 | 2.2
CCCCCOC(=O)c1ccc(NC(=O)c2ccco2)cc1 | i
C=C(c1cccc2ccccc12)P(=O)(O)O | i
CCn1c(SCC(=O)NC2CCCCC2)nnc1-c1cc2cccc(OC)c2o1 | i
Cc1nc2c3cnn(-c4ccc(C)c(C)c4)c3ncn2n1 | i
CC(C)C(NC(=O)C(c1ccccc1)c1ccccc1)c1nc2ccccc2[nH]1 (configuration not stated) | i
Cc1ccc(C(=O)CSC2=NC(N)=C(C#N)C3(CCCCC3)C2C(N)=O)cc1 (configuration not stated) | i
O=C1CC(C(F)(F)C(F)(F)C(F)(F)C(F)(F)F)=Nc2ccccc2N1 | 2.2
CC(CN1CCN(C)CC1)OC(=O)c1ccc(Cl)cc1 (configuration not stated) | 0.4
COc1ccc(N(Cc2ccccc2)S(=O)(=O)c2cccc(C(=O)NC3=NCCS3)c2)cc1 | i
c1coc(-c2nc3nc4ccccc4nc3n2CC2CCCO2)c1 (configuration not stated) | 0.7
CCOC(=O)c1cnc(SCC(=O)Nc2cc(OC)cc(OC)c2)nc1N | i
CCOC(=O)C1CCCN(C(=O)Cn2nc(Cc3cccnc3)c3ccccc3c2=O)C1 (configuration not stated) | 1.3
O=C(Nc1nc2ccc(F)cc2s1)C1CCCO1 (configuration not stated) | i
CCC(=O)N1CCc2cc(OC)c(OC)cc2C1COc1ccc(C(=O)OC)cc1 (configuration not stated) | 0.5
CC1CCCC(NC(=O)CC2Nc3ccccc3NC2=O)C1C (configuration not stated) | 0.2
Cc1nnc(N(Cc2ccccc2)C(=O)c2cnccn2)s1 | 0.2
Cc1ccc(Cn2nnnc2CN2CCC(n3nnc4cc(C)ccc43)CC2)cc1 | i
Cn1cccc1Cc1nnc(SCC(=O)NCCc2ccccc2)n1-c1ccc(F)cc1 | 1.0
Cc1cccc(CC(=O)Nc2cc(C)c3c(=O)oc4ccccc4c3n2)c1 | i
CCOC(=O)c1cnc(-n2cc(C)cn2)nc1Nc1ccccc1OC | 0.1
Cc1nc(N2CCN(c3ccccc3)CC2)[nH]c(=O)c1Cc1ccccc1 | i
Cc1ccc(CNS(=O)(=O)N(C)C)cc1 | 0.8
Cc1c(C(=O)NCCc2ccccc2)oc2ccc(S(=O)(=O)N3CCOCC3)cc12 | 1.2
COc1ccccc1OCc1ccc(C(=O)N2CCN(C(=O)c3ccco3)CC2)cc1 | i
Next section.
SMILES | H5N1 CPE
NC(=O)CCN(Cc1ccccc1)S(=O)(=O)c1ccccc1 | 0.5
CCCCNC(=O)C1CC(=O)N(c2ccc(OC)cc2)C1c1ccc(OC)cc1 (configuration not stated) | i
COc1ccc(C2C(C(=O)Nc3cc(C)on3)c3ccccc3C(=O)N2C)cc1OC (configuration not stated) | i
COc1ccc(OC)c(C2C(C#N)=C(N)Oc3cc(N)ccc32)c1 (configuration not stated) | 0.8
Cc1cc(C)n(-c2nnc(C)n2/N=C/c2ccco2)n1 | 0.2
O=C(c1sc2ccccc2c1Cl)N(Cc1ccco1)C1CCS(=O)(=O)C1 (configuration not stated) | 1.4
COC(=O)/C=C1/N/C(=N\c2nc(C)cc(C)n2)N(c2ccc(C)c(C)c2)C1=O | 6.9
Cc1ccc2oc(=O)c3cnn(CC(=O)N4CCc5ccccc5C4)c3c2c1 | i
N#CC(C(=O)NCCc1ccccc1)c1nc2ccccc2nc1N1CCOCC1 (configuration not stated) | i
COc1cc(OC)c(OC)cc1CNC1CCCCCC1 | i
O=C(Nc1c(F)cc(F)cc1Br)c1cc(-c2ccc(O)cc2)on1 | 1.5
CCO/C=C1/C(=O)N(C)C(=O)c2cc(OC)ccc21 | 1.2
COC(=O)c1sccc1NC(=O)CSc1cc(Cl)ccc1Cl | 5.4
CC(C)(C)C1=Nn2c(nnc2C2CCCCC2)SC1 | 1.9
C=C(C)CC(NCc1ccco1)c1ccc(OC)cc1 (configuration not stated) | i
C(=N\n1cnnc1)/c1ccc(-c2ccccc2)cc1 | i
Nc1nonc1C(=O)NCCNC(=O)c1ccccc1F | i
Cc1nc2cc(C(=O)O)ccc2s1 | 1.0
Cc1ccc(CSC2=NCCN2C(=O)C2CC2)cc1 | 1.7
Cc1cc(Nc2ccccc2)nn1C(=O)c1ccc(Cl)cc1 | i
O=C(O)C1(P(=O)(c2ccccc2)c2ccccc2)CCC1 | 0.8
Cc1nn(Cc2ccc(Cl)cc2)c(C)c1NC(=O)c1cc(-c2ccco2)on1 | i
Cc1ccc2oc(=O)c3cnn(CC(=O)NC4CCN(Cc5ccccc5)CC4)c3c2c1 | i
CCCCCCN=Cc1c(O)n(C)c(=O)n(C)c1=O | i
CCCC(=O)C1C(=O)CC(CC(C)SCC)CC1=O (configuration not stated) | 0.3
O=C(Oc1ccc2c(=O)c(Cl)coc2c1)c1ccncc1 | i
CCCCOC(=O)Nc1ccccc1C(N)=O | i

These rows are one share of the data. The share of hits here may be higher or lower than overall.
